Vaccinia Venus – qHTS for Stage-Specific Inhibitors of Vaccinia Orthopoxvirus: Venus Reporter Primary qHTS; Vaccinia virus Venus reporter expression, fluorescence; AID 720580, 2013; hit rate 0.46% among 330,000; Potency, µM (titrated, usually from 36.5 µM), without a hit: top-dose activity change, negative = inhibition, most hits filed as inhibitors; active means well fitted inhibition curve with a large enough effect; inconclusive means small, poorly fitted or top-dose-only effect; inactive means no such curve, though single readings can be large or run the other way; tested in A549 cells; also: nearly all actives have a fitted effect of over 30% in size; inactives centre near -10
VACV mCherry inh – qHTS for Stage-Specific Inhibitors of Vaccinia Orthopoxvirus: mCherry Reporter Primary qHTS | Vaccinia virus mCherry reporter infection, fluorescence; about a quarter of the inactives have no number | Potency, µM (titrated, usually from 36.5 µM), for the others: at the top dose activity change, negative = inhibition, actives largely listed as inhibitors | hit rate 0.63% among 310,000; active = well fitted inhibition curve with a large enough effect; inconclusive = small, poorly fitted or top-dose-only effect; inactive = no such curve, though single readings can be large or run the other way; tested in A549 cells; also: nearly all actives have a fitted effect of over 35% in size; inactives centre near -10
Starred values were filed as active, the others as inactive; i = inactive; u = inconclusive; x = not tested or not shown; [ ] = remark or other dose. % is scaled to controls: 0 for no effect and ±100 for the full control effect; potency is read from the fitted curve at half-maximal effect.

Molecule,Vaccinia Venus,VACV mCherry inh
CCn1cc(C(=O)O)c(=O)c2cc(F)c(N3CCN(C(=S)NC(=O)c4ccccc4)CC3)cc21,-12%,i
Cc1ccc2c(c1)-c1c(cnn1CC(=O)O)CO2,0%,x
COc1ccc(-c2ccc(C(c3c(C)[nH][nH]c3=O)c3c(C)[nH][nH]c3=O)o2)c([N+](=O)[O-])c1,-11%,-19%
COc1cccc(NC(=O)COC(=O)c2ccccc2C(=O)N2CCN(c3ccccc3)CC2)c1,-19%,-10%
CCCS(=O)(=O)NC(=O)C1(C)CCCN(C(=O)c2ccc3snnc3c2)C1 (configuration not stated),2%,40%[activator]
Cn1nccc1C(=O)NCC1CCC2(CCN(Cc3ccc(-c4ccc(Cl)cc4)o3)CC2)O1 (configuration not stated),-24%,-26%
CCOCCCNC(=O)c1c[nH]c2cc(C)ccc2c1=O,-13%,-24%
Cc1ccc(S(=O)(=O)c2nc(-c3cccc(C)c3)oc2N2CCN(c3ccccc3)CC2)cc1,-7%,-5%
COC(=O)Cn1ncc2c(C)n(Cc3ccccc3)c(C)c2c1=O,-3%,i
CCOc1ccc(N(CC(=O)Nc2c(C)n(C)n(-c3ccccc3)c2=O)S(=O)(=O)c2ccc(F)cc2)cc1,-4%,-1%
Cc1ccccc1NC(=O)COC(=O)c1ccc(S(=O)(=O)N2CCCCCC2)cc1,-8%,-6%
COc1ccc(NC(=O)CSCC(=O)NCCc2ccccn2)cc1,10%,i
CN(CC(=O)NC(=O)NCc1ccccc1)Cc1cccc(Cl)c1Cl,u,14µM*
COc1ccc(Cl)cc1NC(=O)CSc1nc2[nH]ncc2c(=O)[nH]1,-3%,i
Cc1ccc(-c2noc(CCCC(=O)NCc3ccco3)n2)cc1,-18%[7.34 µM],-14%[7.34 µM]
CCc1nnc(NC(=O)c2oc3ccccc3c2COC(C)C)s1,-2%,i
COCCNC(=O)CS(=O)Cc1nc(-c2ccc(OC)cc2)oc1C (configuration not stated),13%,-11%
O=C(COc1ccc(Cl)cc1)NC1CCSC1=O (configuration not stated),-15%,x
O=C(Cn1c(=O)n(Cc2nc(-c3ccccc3)no2)c(=O)c2cc3c(cc21)OCO3)Nc1ccccc1,-10%,-1%
CC(C)C[C@@]12C(=O)N(c3cccc(Cl)c3)C(=O)N1[C@H](c1ccc(Br)cc1)[C@@H]1C(=O)N(C(C)(C)C)C(=O)[C@@H]12,-16%,i
COc1ccc(NC(=O)CN2CCN(CC#N)CC2)cc1,-4%,-18%
O=C(Nc1ccccc1Cl)OC1CN2CCC1CC2 (configuration not stated),-12%[7.34 µM],-9%[7.34 µM]
O=C(O)[C@@H](O)c1ccccc1,-19%,-22%
CCCn1nnnc1SCC(=O)NNC(=O)c1ccco1,-4%,-11%

Reprinted from the part before: 2 compounds; new compounds follow.
Molecule,Vaccinia Venus,VACV mCherry inh
O=C(O)[C@@H](O)c1ccccc1,-19%,-22%
CCCn1nnnc1SCC(=O)NNC(=O)c1ccco1,-4%,-11%
CCc1ccc(OC(C)C(=O)Nc2ccc(S(=O)(=O)Nc3nccs3)cc2)cc1 (configuration not stated),-5%,-9%
Cc1ccc(SCC(=O)Nc2ccc(S(N)(=O)=O)cc2)cc1,-12%,2%
CN1CCN(c2ccccc2NC(=O)c2ccc(-c3ccccc3[N+](=O)[O-])o2)CC1,u,u
Cc1ccc2c(c1)c1c(n2CC(O)CN2C(=O)CNC2=O)C(=O)CCC1 (configuration not stated),-12%,-5%
Cc1cn([C@H]2C[C@H](O)[C@@H](CCC(=O)NCCc3cnc[nH]3)O2)c(=O)[nH]c1=O,-3%,i
CC(C)C[C@H](N)c1nnc(S(=O)(=O)Cc2ccc(F)cc2)o1,-10%,x
COc1ccc(/C=N/NC(=O)c2ccncc2)cc1CN1CCCc2ccccc21,-7%,i
CN(C(=O)COC(=O)c1ccc(Cl)cc1N)C1CCS(=O)(=O)C1 (configuration not stated),-7%,x
CC(C)(C)OC(=O)N1CCC(c2c(C(=O)N3CCc4ccccc4C3)cnn2-c2ccc(F)cc2)CC1,-10%,-6%
COc1cc(OC)cc(-c2nnc(SCC(=O)N3CCCC3)o2)c1,u,x
C[C@@H]1CN([C@H](C)CO)C(=O)CCCn2nncc2CO[C@H]1CN(C)Cc1ccc(O)cc1,-4%,-18%
Cc1cc([N+](=O)[O-])nn1Cc1noc(C(=O)NCCCn2ccnc2)n1,-7%,-24%
CCCN(CC(=O)Nc1ccccc1C)C(=O)c1ccc(OCc2c(C)noc2C)cc1,1%,-10%
NC(=O)c1ccsc1NC(=O)COC(=O)C1CCCN1C(=O)c1cccs1 (configuration not stated),-17%,i
COc1cn(CC(=O)Nc2cc(C)ccc2C)c(CN2CCCCC2)cc1=O,-12%,-11%
COc1ccc(NC(=O)C(NC(=O)c2ccc(=O)[nH]c2)c2ccccc2)cc1 (configuration not stated),-2%,-14%
O=C(c1cccc(S(=O)(=O)N2CCOCC2)c1)N1CCN(S(=O)(=O)c2cccc([N+](=O)[O-])c2)CC1,-16%,i
NC(=O)C1(N2CCCCC2)CCN(C(=S)Nc2ccccc2)CC1,-9%,-20%
CC1CCCN(c2nc3c(-c4ccc(Cl)cc4)nnn3c3ccccc23)C1 (configuration not stated),1%,1%
CC1(C)C2CCC1(C)C(NC1=NCCC1)C2 (configuration not stated),5%,-7%
C[C@H]1CN([C@@H](C)CO)C(=O)c2cc(Br)cnc2O[C@H]1CN(C)Cc1ccc(Oc2ccccc2)cc1,u,u
CCc1sc(N2C(=O)C3C4CCC(C4=C(C)C)C3C2=O)nc1-c1ccccc1 (configuration not stated),-9%,-21%
Cc1ccc(C)n1N1C(=O)/C(=C\c2ccc(Cl)cc2)SC1=S,-5%,-2%
Cc1cc(C)c2nc(N3CCN(C(=O)c4ccco4)CC3)sc2c1,-6%,i
CC(C)OCCCNC(=O)c1cc2c(s1)CS(=O)(=O)C2,-2%,3%
COc1ccc(N=Nc2c(C)[nH]c3ccccc23)cc1,-19%,u
COc1cc(-c2cc(C)c3cccc(OC)c3n2)cc2c1OCCN(C(=O)CCn1nc(C)cc1C)C2,-10%,-20%
C[C@H]1CN([C@@H](C)CO)C(=O)CCCn2nncc2CO[C@@H]1CN(C)C(=O)Nc1ccc(N2CCCCC2)cc1,-8%,-8%
COc1ccc(-n2ncc3c(NCCCN4CCOCC4)ncnc32)cc1,-16%,-13%
CC1CCN(C(=O)c2[nH]cnc2C(=O)N2CCN(C(=O)OC(C)(C)C)CC2)CC1,-3%,-6%
O=C(O)c1cc2ccccc2c2c1C(=O)c1ccccc1-2,-10%,-13%
CC(C)Cn1c(-c2cccc(Br)c2)nc2ccccc21,-9%,-7%

Retrieved by compound from the list above, 7 records:
Molecule,Vaccinia Venus,VACV mCherry inh
CC1CCN(C(=O)c2[nH]cnc2C(=O)N2CCN(C(=O)OC(C)(C)C)CC2)CC1,-3%,-6%
O=C(O)[C@@H](O)c1ccccc1,-19%,-22%
O=C(Cn1c(=O)n(Cc2nc(-c3ccccc3)no2)c(=O)c2cc3c(cc21)OCO3)Nc1ccccc1,-10%,-1%
CN(CC(=O)NC(=O)NCc1ccccc1)Cc1cccc(Cl)c1Cl,u,14µM*
CC1(C)C2CCC1(C)C(NC1=NCCC1)C2 (configuration not stated),5%,-7%
C[C@H]1CN([C@@H](C)CO)C(=O)CCCn2nncc2CO[C@@H]1CN(C)C(=O)Nc1ccc(N2CCCCC2)cc1,-8%,-8%
NC(=O)c1ccsc1NC(=O)COC(=O)C1CCCN1C(=O)c1cccs1 (configuration not stated),-17%,i

(further entries)
Molecule,Vaccinia Venus,VACV mCherry inh
CCNC(=O)c1nn(-c2ccccc2C)nc1CO,-3%,-9%
O=C(/C=C/[C@H]1O[C@@H](n2ccc(=O)[nH]c2=O)[C@H](O)[C@@H]1O)NCCc1cccs1,0%,45%[activator]
CCN(CC)c1ccc(NC(=O)COC(=O)COc2ccccc2[N+](=O)[O-])cc1,-8%,i
CCc1nnc(NC(=O)c2cc(S(=O)(=O)N3CCOCC3)ccc2N2CCCCC2)s1,-22%,-23%
CCCCCN(C(=O)CCC(=O)OCC(=O)N1CCC(C)CC1)c1c(N)n(CCCC)c(=O)[nH]c1=O,-4%,-13%
COc1nc(Nc2ccc(C(C)C)cc2)nc(OC)n1,-4%,i
COCCCNC(=O)/C(C#N)=C/c1c(N2CCN(c3ccc(OC)cc3)CC2)nc2c(C)cccn2c1=O,-22%,-12%
CCOC(=O)C(=O)NC1CC=CCC1c1ccc2c(c1)OCO2 (configuration not stated),-10%,i
Cc1cccc(-n2ncc3c(NCc4ccccn4)ncnc32)c1,-15%,x
C/C=C1\C(OC2OC(CO)C(O)C(O)C2O)OC=C(C(=O)OC)C1CC(=O)OCC1C(C)C(OC(=O)CC2C(C(=O)OC)=COC(OC3OC(CO)C(O)C(O)C3O)/C2=C\C)CC1C(CO)CO (configuration not stated),-2%,-6%
COc1ccc(CCNC(=O)c2ccc(Br)o2)cc1Br,0%,-5%
CCCn1c(=N)c(C(=O)NCC2CCCO2)cc2c(=O)n3cccc(C)c3nc21 (configuration not stated),-7%,-13%
CCOc1ccc(NC(=O)Cn2cc(C(=O)c3ccc(C)c(C)c3)c(=O)c3cc4c(cc32)OCCO4)cc1,10%,0%
O=C(c1cccs1)N1CCCC(c2nc3c(nnn3Cc3ccccc3Cl)c(=O)[nH]2)C1 (configuration not stated),-11%,-14%
COc1ccc(-c2cccc(NS(=O)(=O)c3cc(C)ccc3OC)c2)nn1,-8%,-15%
CCC(CC)C(=O)c1c[nH]c(C(=O)N2CCN(c3ccccc3F)CC2)c1,3%,i
CCOc1cccc2sc(=NC(=O)c3ccc(S(=O)(=O)N4CCOCC4)cc3)n(C)c12,-15%,-9%
COc1cccc(-c2oc3c(c2C(=O)OCCN(C)C)C(O)CCC3)c1 (configuration not stated),-2%,1%
O=C(c1ccccc1)c1nccc2ccccc12,-4%,-10%
CC(=O)NC(c1ccccc1)c1nc(/C=C/c2ccccc2)cs1 (configuration not stated),-7%,i
O=C(CC12CC3CC(CC(C3)C1)C2)NC(=S)N1CCCCC1,-17%,-16%
CN(C)CCC(=O)N1C/C(=C/c2ccccc2)C(=O)/C(=C\c2ccccc2)C1,11µM*,8.9µM*
Cc1ccc(F)cc1S(=O)(=O)NCc1nc(N2CCCC2)c2cccc(C)c2n1,-15%,i
O=C(NCC1CCCO1)c1ccc(N2CCCCC2)nc1 (configuration not stated),-12%,-15%
CCOc1ccccc1N1CCN(Cc2cnc(-c3ccccc3)[nH]2)CC1,-17%,i
O=C(Nc1ccc(N2CCOCC2)cc1)C1CCCN(S(=O)(=O)c2cccc(C(F)(F)F)c2)C1 (configuration not stated),2%,-1%
N#Cc1c(C(F)(F)F)cc(-c2ccc(Cl)cc2)nc1SCC(=O)O,4%,i
O=C(OCC(=O)N1CCN(c2ccccc2)CC1)c1ccc(Cl)cc1[N+](=O)[O-],-12%,i
COc1cccc(CNC(=O)c2c(C)nn(-c3ccc(F)cc3)c2-n2cccc2)c1,2%,-3%
CN(CC(=O)Nc1ccc(Cl)c(C(F)(F)F)c1)C(=O)C1CC(=O)N(CCc2ccccc2)C1 (configuration not stated),u,u
O=S(=O)(Nc1cccnc1)c1ccc(F)cc1,-12%,i
COc1cccc(OC)c1C(=O)Nc1cc2c(cc1N1CCOCC1)n(C)c(=O)n2C,-26%,-6%
O=C(CN1CCN(c2ccccc2F)CC1)Nc1cccnc1Cl,-7%,-13%
CCSc1nc2c(c(=O)[nH]1)C(c1cccs1)C(C(=O)OC)=C(C)N2 (configuration not stated),-12%,6%
N/C(=N\OC(=O)c1cc(Br)ccc1Cl)c1ccccn1,-10%,i
COc1ccc(C2C(C(=O)c3ccco3)=C(O)C(=O)N2CC2CCCO2)cc1OC (configuration not stated),11%,i
Fc1ccc(CCNCc2ccc(Br)cc2)cc1,-16%,i
O=C(COc1ccc2c(-c3ccccc3)cc(=O)oc2c1)N[C@H](Cc1c[nH]c2ccccc12)C(=O)O,-11%,-3%
CC(=O)C1C(c2ccccc2OC(F)F)NC(=O)NC1(O)C(F)(F)F (configuration not stated),-4%,-4%
COC(=O)COc1ccc(-c2nn(C)c(=O)c3ccccc23)cc1,-5%,-10%
COc1ccc(COC(=O)CCN=C2NS(=O)(=O)c3ccccc32)cc1F,-21%,i
Cc1cc(Cl)ccc1NNC(=O)c1c(C)noc1C,-13%,i
CCN(C(=O)C(C)Sc1nnc(-c2ccncc2)n1C)C1CCCCC1 (configuration not stated),-7%,-22%
O=C(Nc1ccc2c(c1)OCO2)c1csc(COCCO)n1,-4%,6%
Cc1nn2c(=O)cc(COC(=O)c3cccc(NC(=O)c4ccc(F)cc4)c3)nc2s1,-16%,-13%
O=C(NNC(=O)c1cc(-c2ccncc2)nc2ccccc12)c1ccccc1O,u,13µM*
CC(C)C[C@H]1CNC(=O)C(=O)N1CC1CCN(CCc2ccccc2)CC1,-8%,i
CCCCn1c2c(c(=N)c3ccccc31)CCC2,-27%,i
